# Screening results: PubChem BioAssay, Center for Chemical Genomics, University of Michigan
# TAR Tat displ: HIV-1 TAR-Tat binding disruption | HIV-1 TAR RNA, Tat peptide displacement FRET; hits give high values | AID 1259389 | hit rate 0.6% among 100,000 | z-score (test concentration not listed);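 also: score is relative to mean and SD of negative controls; some compounds called inactive have numbers as strong as hits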
# CDC25B-CDK2 inh: human CDC25B-CDK2/CyclinA binding inhibition. z-score (test concentration not listed). HTRF CDC25B-CDK2/CyclinA binding, anti-His/anti-Flag; hits give high values. P30305+P24941. hit rate 0.72% among 94,000;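 also: score is relative to mean and SD of negative controls; strong numbers were not always called active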
# Active calls of the source: *; nt = not tested or not shown.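 The calls were made as follows: active = z-score from 3 up in half or more of its runs; inactive = the rest.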
Molecule	TAR Tat displ	CDC25B-CDK2 inh
Cc1ccc(C)c(C2CC(=O)Nc3c2c(C)nn3-c2nc3ccccc3s2)c1 (stereo not drawn)	2.3	nt
O=C(O)c1ccc(O)c(O)c1	1.1	nt
Cc1cccc(S(=O)(=O)Nc2ccc(-c3cn4cccc(C)c4n3)cc2)c1	-1.5	1.1
O=S(=O)(NCCc1csc(-c2ccc(F)cc2)n1)c1ccc(Br)cc1	1.6	nt
CCN(CC)CCNC(=O)c1cc2c(s1)-c1ccsc1CC2	0.23	nt
CCC(C)Nc1ncnc2c1sc1nc3c(cc12)COC(C)(C)C3 (stereo not drawn)	0.29	1.8
COC(=O)CS(=O)(=O)c1nc2ccccc2nc1Cl	2.5	-2.5
CSC1=N/C(=C/c2cccs2)C(=O)N1	nt	-1.6
C=CCOc1cccc(C2c3c(oc4ccc(F)cc4c3=O)C(=O)N2c2cccc(C)n2)c1 (stereo not drawn)	2	-0.59
Cc1cccc(N(C)S(=O)(=O)c2ccc(-c3coc(C)n3)cc2)c1	-0.15	nt
Cc1ccc(C2CC(=O)c3cnc4c(-c5ccc(F)cc5)c(C)nn4c3C2)cc1 (stereo not drawn)	0.56	-0.38
CCOc1ccc(C(C)(C)C)cc1S(=O)(=O)n1c(C)nc2ccccc21	0.24	1.1
Cc1cc(Nc2ccc(C(=O)O)c(O)c2)n2ncnc2n1	1	-0.87
COc1cccc(OCC(O)CN2CCCC(C)C2)c1 (stereo not drawn)	nt	0.11
CC(C)(C)c1cc(C(C)(C)C)n(-c2ccc(N3CC(C(=O)O)CC3=O)cc2)n1 (stereo not drawn)	nt	-0.28
Cc1cc(C)cc(NC(=O)C2=Cc3sc(C)c(C)c3CS2)c1	-3.9	nt
NC(=O)CSc1nnc(-c2ccco2)n1-c1ccccc1	nt	-1.7
CC1=C(C(=O)OCCOc2ccccc2)C(c2ccc(C)o2)C2=C(CC(C)(C)CC2=O)N1 (stereo not drawn)	0.93	-0.6
Cc1cc(=O)[nH]c(N2CCN(c3ccccc3F)CC2)n1	0.86	nt
O=C(/C=C/c1cccs1)NC(=S)N1CCCCC1	nt	-0.54
COc1ccc(NC(=O)N2CC3CCCN3c3ccccc32)c(OC)c1 (stereo not drawn)	-1.6	nt
COc1ccc(Oc2ncnc3sc(C)c(C)c23)cc1	-0.42	-0.69
Cc1ncc(-c2ccc(C)c(S(=O)(=O)Nc3ccc(C)c(C)c3)c2)o1	0.62	nt
O=C(Nc1ccc2c(c1)OCCO2)C1CCN(c2ccc(-c3cccs3)nn2)CC1	0.45	nt
CCOC(=O)N1CCC(NC(=O)Cn2cc3c(n2)CCCCCC3)CC1	2	-2.2
O=C(O)CSc1c2c(nc3cc(C(=O)Nc4ccc(F)c(Cl)c4)ccc13)CCC2	nt	-3
CCCc1cc(C2CCCN2C(=O)c2cc(-c3ccco3)on2)no1 (stereo not drawn)	-4.1	nt
CN1CCN(c2ccc(CNC(=O)c3ccsc3)cc2)CC1	nt	-2.2
O=C(O)c1ncc(C(F)(F)F)cc1Cl	nt	-0.88
CCOC(=O)c1cc(C(=O)OCC)c(C)nc1C	-0.08	-0.96
C=CCn1c(=S)[nH]c2cc(C(=O)NCCC3=CCCCC3)ccc2c1=O	nt	-0.84
Cc1cccc(-n2nnc(-c3nc(-c4ccccc4)no3)c2C)c1C	-0.57	nt
CC(C)NC(=O)C(C)N1Cc2ccccc2C1=O (stereo not drawn)	0.48	nt
Cc1cc(C(=O)CN2C(=O)CSC2=O)c(C)n1-c1ccc(F)cc1	1.6	nt
Cc1nc2ccccc2n1CCOc1ccccc1Cl	0.56	-1.4
Cc1nn(C)c2c1c(C(F)(F)F)cc(=O)n2CC(=O)c1c(C)n(C)c2ccccc12	-0.83	nt
CC(C(=O)NCC1CCCO1)n1ncn2c(cc3occc32)c1=O (stereo not drawn)	-0.16	-0.02
Cc1nn2c3c(cnc2c1-c1ccc(F)cc1)C(=O)CC(c1ccc(Cl)cc1)C3 (stereo not drawn)	1.1	-1.4
Cc1ccc(-n2nnn(C3CC(=O)C4OCC3O4)c2=S)cc1C (stereo not drawn)	nt	-1.5
O=C(Cn1c2ccccc2c2cn[nH]c(=O)c21)NCCCN1CCOCC1	nt	-2.5
Cc1ccc(N(c2ccc(C)cc2)c2cccnc2)cc1	0.2	1.4
NS(=O)(=O)c1ccc(CCNc2nccn(-c3ccc4c(c3)OCO4)c2=O)cc1	-0.62	nt
CCCCNC(=O)CCc1c(C)nc2c(c(C)nn2C(C)(C)C)c1C	-0.13	-1.4
CC1CCc2nn(CC(=O)NCCCN3CCOCC3)cc2C1 (stereo not drawn)	0.22	-0.49
CN(C)CCn1c2c(c(SCC(=O)N3CCCc4ccccc43)nc1=O)CCC2	1.4	nt
N#Cc1c(NC(=O)C2CC(Cl)=CCC2C(=O)O)sc2c1CCCCC2 (stereo not drawn)	-1.6	1.9
COc1ccc(-c2nnc(SCCOc3ccc(C)cc3OC)o2)cc1OC	1.4	0.04
COc1ccc(C2C3=C(Nc4ncnn42)c2ccccc2OC3c2ccccc2)cc1 (stereo not drawn)	2	-0.96
CC(C)Cc1nc(SCC(=O)N2CCN(c3ccccc3)CC2)c2c(=O)n(C)c(=O)n(C)c2n1	0.87	nt
O=C(Nc1cccc(Cl)c1)C1=Cc2cc(Br)ccc2OC1	0.04	nt
CC1CN(S(=O)(=O)c2ccc(-c3ccc(=O)[nH]n3)s2)c2ccccc2O1 (stereo not drawn)	-1.7	nt
CC1(C)OC(=O)C2(C(=O)O1)C1C3C4CC5C6C4C1C6C2C53 (stereo not drawn)	nt	-0.87
CC(C)C1C(=O)Nc2ccc(S(=O)(=O)N3CCN(c4ccccc4)CC3)cc21 (stereo not drawn)	1.3	nt
Fc1ccccc1CN1CCC(N2CCN(c3ccccc3)CC2)CC1	nt	-0.63
C=CCN1C(=O)SC(CC(=O)O)C1=O (stereo not drawn)	0.22	-0.08
CC1=C(c2ccc(F)cc2)S(=O)(=O)N=C1Nc1ccc(C)cn1	-2.1	nt

# (further entries)
Molecule	TAR Tat displ	CDC25B-CDK2 inh
C[C@@H]1CC2(CCCN2Cc2ccccc2)C[C@H]1C	nt	-2.2
COc1ccc2cc3c(nc2c1)N(S(=O)(=O)c1ccc2c(c1)OCO2)CC3	-0.68	-1.2
O=C1c2ccccc2-c2onc3c(N4CCOCC4)cc(NCc4ccccc4)c1c23	-1.2	-0.19
Cc1nnc2c(NCCCN3CCN(c4cccc(Cl)c4)CC3)nc3ccccc3n12	0.55	-0.33
Cc1noc(C)c1S(=O)(=O)Nc1ccc(CCc2nc3ccccc3n2C)cc1	0.99	nt
Cc1cc2c(cc1C)C(c1ccc(C)c(Br)c1)CC(=O)N2 (stereo not drawn)	2.2	-2
COC(=O)CCC(=O)c1cc(C(C)(C)C)sc1C(C)(C)C	0.65	-1.9
O=c1c(NCc2cccs2)nccn1-c1ccccc1	0.51	nt
COCCc1nn2c(=O)cc(COC(=O)c3ccccc3F)nc2s1	-0.58	nt
Cc1oc2c(F)c(F)c(F)c(F)c2c1C(=O)Oc1cccc(C(F)(F)F)c1	nt	-1.6
COC(=O)c1c(C)oc(C)c1S(=O)(=O)NCc1ccc(OC)cc1	nt	-0.71
Cn1c(C(=O)NCCCN2CCOCC2)c(N2CCCC2=O)c2cc(F)ccc21	-0.07	nt
Cc1ccc(S(=O)(=O)[C@H]2CS(=O)(=O)C[C@@H]2NC2CCCCC2)cc1	-0.23	0.9
Cc1nc2c3ccccc3n(CC(=O)c3ccc(F)cc3)c(=O)n2n1	nt	-1.4
C[C@@H]1C[C@H]2O[C@@H]2/C=C\C=C\C(=O)Cc2c(Cl)c(O)cc(O)c2C(=O)O1	5*	nt
CC1=C(c2ccc(C)c(C)c2)S(=O)(=O)N=C1Nc1ccc2c(c1)OCO2	-2.9	-1.3
COc1cc(C2NC(=O)NC(C)=C2C(=O)OCC(F)(F)F)cc(Br)c1O (stereo not drawn)	nt	-1
CCCSc1nc(NCCCO)c2sc3c(c2n1)COC(C)(CC)C3 (stereo not drawn)	-1.3	0.49
Cc1nn(Cc2n[nH]c(=S)n2C)c(C)c1Br	nt	-0.94
COc1ccc(CNc2ccc(Cl)cc2)cc1Cn1ccnc1	1.9	nt
COc1ccc(OC)c(NC(=O)N2CCCn3nc(-c4cccn4C)cc32)c1	1.3	nt
O=S(=O)(c1ccccc1)c1nnn2c1nc(N1CCCC1)c1cc(Cl)ccc12	-0.55	-1.6
CC(C)CNC(=O)c1c(O)nc2ccccn2c1=O	0.72	-2
CCS(=O)(=O)c1nc(S(=O)(=O)c2ccc(Cl)cc2)c(NCCCN2CCOCC2)s1	0.62	-0.88
Cc1nn(-c2ccc(N3CCOCC3)nn2)c(C)c1CCC(=O)N1CCN(c2ccccc2)CC1	-1.7	nt
O=C(Cn1c(=O)oc2ccccc21)Nc1nc2c(s1)CCCC2	nt	-0.67
O=C(NCc1cccs1)C(=O)Nc1ccc2nc3n(c(=O)c2c1)CCCCC3	4.6	-1.1
CCC1(C)Cc2c(sc3nc(SC)n4cnnc4c23)CO1 (stereo not drawn)	0.81	0.66
O=C(NCC1CC1)Nc1ccc(OCc2ccccc2)cc1	nt	-1.4
COc1ccc(C(=O)Oc2ccc(N(C)C3=NS(=O)(=O)c4ccccc43)cc2)cc1OC	0.8	-2
COc1ccccc1C1Nc2ccc(C(=O)O)cc2C2C3CCC(C3)C12 (stereo not drawn)	8	0.11
CC1CCN(S(=O)(=O)c2ccc3[nH]c4c(c3c2)CCCCC4)CC1	1.3	nt
COc1cc2c(cc1OC)CN(S(=O)(=O)c1ccc(Oc3ccccc3)cc1)CC2	nt	0.16
CC(C)CN(CC(C)C)C(=O)CCS(=O)(=O)c1ccc2c(c1)n(C)c(=O)c(=O)n2C	1.4	-0.58
CCOC(=O)C1CCCN(C(=O)C2CCN(S(=O)(=O)c3cccs3)CC2)C1 (stereo not drawn)	nt	-0.7
CCc1cc2c3c([nH]c2cc1S(=O)(=O)NC1CCCC1)CCCC3=O	1.1	nt
CCCCOC(=O)c1nnc(-c2ccc([N+](=O)[O-])cc2)o1	nt	-0.37
O=C1CSC(c2ccccc2F)N1c1ccccc1 (stereo not drawn)	-0.29	-2.4
O=C(Nc1ccccc1Cl)c1cnn(-c2ccc(F)cc2)c1-n1cccc1	0.93	nt
CCN(CCNC(=O)C(C)n1c2ccccc2c2nc(=O)cc(C)n21)c1ccccc1 (stereo not drawn)	-2.1	-0.07
O=C(CC1(O)C(=O)N(Cc2ccc(Cl)cc2)c2ccccc21)c1ccc2ccccc2c1 (stereo not drawn)	nt	-1.4
O=C(O)Cn1ncn2c(c(-n3cccc3)c3c4c(sc32)CCCC4)c1=O	2.4	6.1
CCN1CCN(c2ncnc3c2cnn3-c2cccc(Cl)c2)CC1	1.1	nt
O=C(Nc1nnc2n1CCCS2)c1ccc(S(=O)(=O)N2CCOCC2)cc1	0.33	nt

# Compounds listed so far with an aryl methoxy group:
Molecule	TAR Tat displ	CDC25B-CDK2 inh
COc1cccc(OCC(O)CN2CCCC(C)C2)c1 (stereo not drawn)	nt	0.11
COc1ccc(NC(=O)N2CC3CCCN3c3ccccc32)c(OC)c1 (stereo not drawn)	-1.6	nt
COc1ccc(Oc2ncnc3sc(C)c(C)c23)cc1	-0.42	-0.69
COc1ccc(-c2nnc(SCCOc3ccc(C)cc3OC)o2)cc1OC	1.4	0.04
COc1ccc(C2C3=C(Nc4ncnn42)c2ccccc2OC3c2ccccc2)cc1 (stereo not drawn)	2	-0.96
COc1ccc2cc3c(nc2c1)N(S(=O)(=O)c1ccc2c(c1)OCO2)CC3	-0.68	-1.2
COC(=O)c1c(C)oc(C)c1S(=O)(=O)NCc1ccc(OC)cc1	nt	-0.71
COc1cc(C2NC(=O)NC(C)=C2C(=O)OCC(F)(F)F)cc(Br)c1O (stereo not drawn)	nt	-1
COc1ccc(CNc2ccc(Cl)cc2)cc1Cn1ccnc1	1.9	nt
COc1ccc(OC)c(NC(=O)N2CCCn3nc(-c4cccn4C)cc32)c1	1.3	nt
COc1ccc(C(=O)Oc2ccc(N(C)C3=NS(=O)(=O)c4ccccc43)cc2)cc1OC	0.8	-2
COc1ccccc1C1Nc2ccc(C(=O)O)cc2C2C3CCC(C3)C12 (stereo not drawn)	8	0.11
COc1cc2c(cc1OC)CN(S(=O)(=O)c1ccc(Oc3ccccc3)cc1)CC2	nt	0.16
